Calb FLC: C. albicans growth inhibition with fluconazole, primary screen, CaCi-2 strain, Alamar Blue fluorescence | C. albicans CaCi-2 (fluconazole-resistant clinical isolate) + fluconazole, 48 h | growth inhibition, % (no concentration beside the values) | 300,000 compounds, 0.57% hits | AID 1979, 2009;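 active = most replicates above 75%; inconclusive = exactly half above 75%; inactive = most below 75%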;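 also: all wells also contain fluconazole at 8 µg/ml as a sub-toxic cotreatment; 0% = median of DMSO wells and 100% = median of geldanamycin control wells; wells of about 8 µL received 7.5 nL stock; the first replicate is given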
RanGTP-Imp inh: inhibitors of RanGTP-importin-beta interaction, primary screen, biochemical, FRET, CFP-Ran, YFP-importin-beta, homogeneous; cell-free CFP-Ran/YFP-importin-beta FRET ratio; Ran GTPase (GTP-bound) - importin-beta complex; 300,000 compounds, 1.1% hits; AID 2216, 2009; inhibition, % (no concentration beside the values);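 active = most replicates above 15%; inconclusive = exactly half above 15%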;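 also: 0% = DMSO wells and 100% = Ran loaded with GDP instead of GTP; wells of about 40 µL received 100 nL stock; the first replicate is given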
T cruzi repl: inhibitors of intracellular T. cruzi growth, primary screen, luminescence, NIH3T3 host cells. T. cruzi beta-gal in NIH3T3, 90 h. inhibition, % (no concentration beside the values). 300,000 compounds, 1.4% hits. AID 1885, 2009;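 active = mean inhibition across valid replicates above about 55%, limit read from the data; inconclusive = mean below that limit but half or more replicates reach it; inactive = mean below it, under half of replicates reach it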;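 also: signal also drops with host cell toxicity which is not excluded here; 0% = plate median of DMSO wells and 100% = zero luminescence signal; higher percent means less beta-gal luminescence so fewer parasites; stock transfer was 50 nL into about 50 µL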
rRNA inh HTS: reduced GFP signal of wild-type E. coli, primary screen, bacterial rRNA inhibitor project, GFP/RFP fluorescence, OD600, single point. 350,000 compounds, 1.6% hits. AID 720706, 2013. E. coli WT GFP vs humanized-ribosome RFP mutants, 24 h; active compounds read low; DMSO median 0, no signal -100. GFP signal change (wild-type ribosome), % (no concentration beside the values);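 active = significant combined selectivity score with lowered wild-type GFP, culture density cut under 30%, mutant RFP and density less affected; inactive = any of these conditions unmet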; also: one replicate is shown; some compounds called inactive have numbers as strong as hits
AF4-AF9 inh: inhibitors of AF4 peptide binding to AF9, primary screen, biochemical, AlphaScreen, biotin-AF4 peptide, FLAG-AF9, single point; Protein AF-9 (Homo sapiens), P42568; inhibition, % at 10 µM; 350,000 compounds, 0.47% hits;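 active = every replicate reaching a set inhibition limit, whatever the replicate mean, cut at about 25% in these data; inconclusive = mean inhibition reaches that limit but some replicates miss it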;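 also: 0% = plate neutral control median and 100% = total signal loss; the record names both 10 and 1 µM as test concentration; the first replicate is given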
Target sequence (P42568 whole entry, looked up): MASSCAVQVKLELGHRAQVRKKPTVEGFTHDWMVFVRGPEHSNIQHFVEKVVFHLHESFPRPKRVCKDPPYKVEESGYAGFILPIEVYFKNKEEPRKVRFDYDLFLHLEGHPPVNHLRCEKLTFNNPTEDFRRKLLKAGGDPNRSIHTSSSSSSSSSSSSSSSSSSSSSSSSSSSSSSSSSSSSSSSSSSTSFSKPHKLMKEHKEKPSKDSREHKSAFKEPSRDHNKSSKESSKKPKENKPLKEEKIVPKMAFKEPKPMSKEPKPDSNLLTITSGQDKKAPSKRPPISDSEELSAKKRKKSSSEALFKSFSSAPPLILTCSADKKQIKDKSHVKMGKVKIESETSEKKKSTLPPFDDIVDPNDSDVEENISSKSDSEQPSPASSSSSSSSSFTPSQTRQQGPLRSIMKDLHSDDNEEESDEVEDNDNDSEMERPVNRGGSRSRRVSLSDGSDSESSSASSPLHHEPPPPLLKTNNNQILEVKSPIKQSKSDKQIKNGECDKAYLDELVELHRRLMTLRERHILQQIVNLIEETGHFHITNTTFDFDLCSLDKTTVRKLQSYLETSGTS
Beta cell apopt: inhibitors of cytokine-induced beta cell apoptosis, primary screen, luminescence; INS-1E cytokine-induced death, ATP luminescence, 48 h; percent of positive-control rescue, neutral wells zero; protection from apoptosis, % (test concentration not listed); 300,000 compounds, 0.8% hits; AID 435005, 2010;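 active = all replicates at 75% or more, or half of them and the mean; inconclusive = half reach 75% but not the mean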;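 also: 0% = cytokine-treated negative control wells and 100% = positive control rescue; higher means more ATP so stronger rescue from cytokine killing; wells of about 40 µL received 100 nL stock; the first replicate is given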
Bfl-1 A1 inh: caspase 3/7 activation in MEF A1-2A-BIM cells, primary screen, A1 inhibitor project, cell-based, luminescence, HTS | 330,000 compounds, 0.066% hits | caspase activation, % (concentration not given with the values) | Caspase-Glo 3/7 luminescence, 3 h; percent of clofoctol response, vehicle zero;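 active = over half of replicate activation scores above 10%, or exactly half above 10 with the replicate mean above 10; inconclusive = replicate mean below 10 yet half the replicates above 10; inactive = over half of replicates below 10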;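 also: wells of about 30 µL received 50 nL stock; many hits fall short of the cut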
Vif TR-FRET: inhibitors of Vif binding to APOBEC3G peptide, primary screen, biochemical, TR-FRET, GST-Vif 1-94, biotin-A3G peptide, dose response retest (AID 1117319); TR-FRET GST-Vif / biotin-A3G peptide binding; higher % means a stronger effect; test concentration not given here; strong numbers were not always called active; inhibition, %, or IC50 in µM where a hit was titrated; 260,000 compounds, 0.57% hits;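 active = above the screen mean plus three standard deviations and confirmed in dose response; inconclusive = results disagree or hit not tested in dose response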;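 also: Vif residues 1-94 fused to GST binding biotinylated APOBEC3G peptide 110-148; 0% = full assay without inhibitor and 100% = GST in place of GST-Vif; retest series ran down from 100 µM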
rRNA inh HTS OD600: also measured in rRNA inh HTS; calls as there; OD600 change, %; measured here: OD600 growth;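 optical density of the mix in the first replicate; 0 = DMSO median and -100 = no signal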
rRNA inh HTS RFP: further read-out of rRNA inh HTS, marked with its call; RFP signal change, %; measured here: RFP humanized mutant strains;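 first replicate; 0 = DMSO median and -100 = no signal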
The depositor's hits bear a star; ? = inconclusive; / = not tested or not shown; & = joins results of further samples. Not all compounds are listed. The share of hits here may be higher or lower than overall.

SMILES | Calb FLC | RanGTP-Imp inh | T cruzi repl | rRNA inh HTS | rRNA inh HTS OD600 | rRNA inh HTS RFP | AF4-AF9 inh | Beta cell apopt | Bfl-1 A1 inh | Vif TR-FRET
CC1=NN(c2ccc(Cl)cc2)C(=O)/C1=C\c1cccn1-c1ccc(S(N)(=O)=O)cc1 | 13.6 | -1.8 | -3.8 | / | / | / | / | -14.9 | 0.4 | -8.2%
Cc1cccc(OCc2nnc(SCC(=O)Nc3cccc(C(=O)N4CCOCC4)c3)n2C)c1C | -6.5 | 0.3 | 5.3 | / | / | / | / | 9.2 | -0.8 | /
C#CCOCCOCCOCCNc1nc(N2CCN(C(=O)[C@H](CCCCN)n3cc(CN)nn3)CC2)nc(N2CCN(C(=O)[C@H](CC(N)=O)n3cc(C(N)[C@H](C)CC)nn3)CC2)n1 (stereo partly specified) | / | / | / | 6.5 | 6.0 | 5.0 | ? | -13.4 | 0.7 | /
COc1ccc(C(=O)Nc2nc(C)cc(C)n2)cc1 | ? | -2.5 | -4.2 | 1.5 | -9.1 | -3.0 | -2.7 | -3.1 | -0.8 | 0.2%
Cc1ccc(-n2nc3c(=O)n(CC(=O)NCc4ccccc4Cl)nc(C)c3c2C)cc1 | 2.4 | 1.0 | 5.9 | 14.9 | 10.1 | -1.3 | -0.9 | 9.8 | 0.0 | -10.4%
C[C@H](CO)N1C[C@H](C)[C@@H](CN(C)S(C)(=O)=O)Oc2ccc(NC(=O)Cn3cnnn3)cc2C1=O | / | / | / | 11.3&4.2 | 6.4&5.1 | 7.3&-1.8 | -0.6&0.3 | -11.4 | 0.1 | 2.8%
C=C(C)c1cccc(C(C)(C)NC(=O)N2CCCC(C)C2)c1 (stereo unspecified) | -36.4 | 2.3 | 7.7 | / | / | / | / | 1.6 | 1.3 | -2.1%
O=[N+]([O-])c1ccccc1CN1CCN(Cc2c[nH]c3ccccc23)CC1 | 10.5 | -1.4 | 5.6 | 1.8 | -10.1 | 0.2 | 13.0 | 116.1* | 0.3 | 7.4%
O=C(NNC(=S)Nc1ccc(F)cc1)C1[C@H]2CCCC[C@@H]12 (stereo partly specified) | 5.8 | -0.4 | -8.5 | / | / | / | -0.6 | -2.2 | -2.4 | 8.4%
Cc1nn(C)cc1CN(C)C(=O)c1cc(-c2ccccc2)nc2ccc(Br)cc12 | 5.3 | -3.4 | -1.5 | 10.9 | 28.3 | 3.4 | -11.8 | 1.4 | 0.1 | 0.3%
O=C(COc1ccc([N+](=O)[O-])cc1Cl)Nc1ccc2[nH]c(=O)[nH]c2c1 | / | / | / | -7.1 | 11.9 | -8.3 | -1.9 | -0.6 | -0.2 | -10.3%
Cc1cc(NC(=O)Nc2cc(C)nn2-c2ccccc2)n(-c2ccccc2)n1 | -3.8 | -4.0 | -12.2 | / | / | / | / | 0.8 | 0.2 | -3.7%
CCOC(=O)C1(CCOc2ccccc2)CCN(Cc2ccc(OC)c(COC)c2)CC1 | 6.2 | 3.1 | 32.4 | -17.1 | -19.3 | 0.1 | -0.1 | / | 0.6 | /
S=C(NCCN1CCOCC1)N/N=C/c1ccccc1 | -6.1 | -2.5 | -9.7 | 6.0 | 3.3 | -1.8 | / | -4.8 | 1.4 | 0.1%
O=C(COc1ncnc2ccccc12)Nc1ccc(Cl)c([N+](=O)[O-])c1 | 21.8 | ? | 41.4 | -7.3 | -5.3 | -0.7 | -0.8 | -2.5 | -0.1 | 8.1%
COc1ccccc1NC(=O)c1cc(C(=O)Nc2ccccc2OC)cc([N+](=O)[O-])c1 | -2.8 | 0.2 | -7.9 | 5.4 | 1.1 | 1.1 | -2.3 | -12.2 | 0.4 | -2.2%
C=CCc1ccccc1OCC(O)CNC(C)C (stereo unspecified) | / | 2.1 | -11.0 | 10.4 | 11.8 | 2.9 | -1.8 | / | / | -1.0%
CC(C)(C)c1ccccc1NC(=O)c1cccnc1 | 0.8 | 0.2 | -19.3 | 11.5 | -4.4 | -7.3 | 6.9 | -0.4 | 1.0 | -1.7%
C=CCn1c(SC(C)C(N)=O)nc2sc(CC)cc2c1=O (stereo unspecified) | 2.8 | -1.3 | -23.7 | 8.9 | -8.6 | -0.6 | -0.3 | -1.6 | 0.4 | /
Oc1cccc(/C=N/Nc2ccc(Cl)nn2)c1O | 1.2 | 1.6 | 5.8 | -23.5 | -51.7 | -3.4 | -0.3 | 107.4* | -0.8 | 4.7%
Cc1csc(SCC(=O)Nc2ccccc2C)n1 | / | / | / | 8.3 | 4.6 | -0.6 | 0.0 | -3.0 | -0.8 | 4.6%
Cc1ccccc1OCCSc1nnc(-c2ccncc2)n1C | -8.3 | -0.6 | -19.0 | / | / | / | / | 2.7 | 1.3 | 7.2%
Cc1cc(S(=O)(=O)N2CCN=C2c2ccccc2)c(Cl)cc1Cl | 2.4 | 7.9 | -4.4 | -21.7 | -28.9 | 1.9 | -3.8 | / | 0.2 | 7.1%
CC1(NC(=O)Cc2csc(-c3cccc(Cl)c3)n2)CCS(=O)(=O)C1 (stereo unspecified) | / | / | / | 3.0 | 4.9 | -2.2 | -0.5 | -3.8 | -0.2 | -2.0%
Cn1ccc(C(=O)OCC(=O)Nc2ccccc2)n1 | 3.4 | 4.8 | 1.8 | 13.6 | 12.9 | 0.8 | 0.7 | / | / | /
O=C(NCCc1ccccc1)c1cc(-c2ccco2)on1 | -6.8 | 5.6 | 1.4 | -9.8 | 5.0 | 7.5 | 3.0 | 17.4 | -1.9 | 25.6%
O=C(C[n+]1ccccc1)Nc1ccc(Cl)c([N+](=O)[O-])c1 | -3.2 | -2.7 | -4.8 | 19.4 | 16.1 | 3.6 | -1.6 | -3.1 | 0.4 | -5.9%
O=C(C1CCN(S(=O)(=O)N2CCOCC2)CC1)N1CCN(c2ccc(F)cc2)CC1 | -11.8 | -0.3 | -14.4 | -5.1 | -17.3 | -3.5 | -1.5 | -0.7 | -0.2 | -2.1%
Cc1ccc(-c2nnc3ccc(SCC(=O)N4CCCc5ccccc54)nn23)cc1 | 3.4 | -6.6 | 19.7 | / | / | / | / | 4.1 | -0.1 | /
O=S(=O)(NCC1CCCO1)c1ccc(S(=O)(=O)N(Cc2ccc(F)cc2)Cc2ccccn2)cc1 (stereo unspecified) | 1.2 | 0.2 | -11.7 | / | / | / | / | -2.8 | -0.2 | 8.3%
Cn1cccc1-c1nc2ccccc2n1Cc1ccccc1 | 0.4 | 0.3 | 0.5 | / | / | / | / | -4.1 | -0.4 | -6.5%
CC1CCN(C(=O)C(C)OC(=O)CSc2ccc([N+](=O)[O-])cc2)CC1 (stereo unspecified) | / | / | / | -7.0 | 8.1 | 1.6 | 0.5 | 6.3 | 1.3 | -19.6%
Cc1ccc(S(=O)(=O)N2CCC(C(=O)N3CCC[C@H]3C(=O)NCC(C)C)CC2)cc1 | -4.2 | 2.3 | -8.3 | 6.3 | 11.9 | -3.0 | -0.2 | 10.7 | -1.1 | /
CC(C)/C(C=O)=C(/NC1CCCCC1)c1ccccc1 | -20.5 | -0.8 | / | 15.5 | 14.1 | -0.8 | -0.6 | / | 0.8 | /
CC(C)C(=O)NNc1nc2ccccc2s1 | 1.0 | 0.0 | -24.8 | 8.2 | 3.2 | 0.0 | -1.7 | 2.3 | -3.1 | -2.7%
Cc1ccccc1C(=O)N1CCC(C(=O)N(CC(C)C)c2c(N)n(Cc3ccccc3)c(=O)[nH]c2=O)CC1 | -2.0 | 3.5 | -4.6 | 7.8 | 7.7 | -1.6 | -6.5 | -4.6 | -0.4 | 4.0%
CCN(CC)S(=O)(=O)c1cccc(C(=O)NC(Cc2c[nH]c3ccccc23)c2nnc3n2CCC3)c1 (stereo unspecified) | -6.1 | -3.7 | -2.2 | / | / | / | / | -0.4 | 0.1 | /
O=C(CCl)N(Cc1cccc([N+](=O)[O-])c1)c1cccc(Cl)c1 | -1.4 | -0.8 | 38.6 | 4.4 | 7.5 | -1.4 | 0.0 | / | / | 5.3%
CC(=O)Oc1ccc(N2C(=O)CC(N3CCOCC3)C2=O)cc1 (stereo unspecified) | -6.8 | -1.6 | 6.8 | / | / | / | / | -8.6 | 0.6 | 3.4%
CC(Nc1nc(Nc2ccc(F)cc2)nc(SCC(N)=O)n1)c1ccccc1 (stereo unspecified) | 19.2 | -1.3 | 8.7 | -47.2 | -78.5 | -9.5 | 3.1 | 4.3 | 1.4 | /
CC(=O)Nc1nc2ccc(Br)cc2s1 | 0.8 | -0.5 | 32.8 | / | / | / | / | 2.7 | -11.0 | -1.9%
COc1ccc2oc(C(=O)OCC(=O)NC3CCCCC3)c(C)c2c1 | -8.1 | -1.3 | -5.9 | 3.0 | 10.8 | -2.0 | 0.0 | / | -1.8 | 3.2%
CN(CC(=O)Nc1ccc(F)c(F)c1F)C(=O)c1ccc2c(c1)S(=O)(=O)N=C1CCCCCN12 | 4.4 | 2.9 | 0.8 | 5.3 | 13.1 | -0.2 | -0.4 | -2.2 | 0.8 | 5.4%
CSc1nc(C)cc(Oc2ccccc2)n1 | -15.7 | -1.3 | -6.3 | 6.8 | -0.3 | 0.9 | -18.2 | / | 0.7 | -0.3%
CCN(CC)C(=O)CSc1ncnc2sc(C)c(C)c12 | -1.1 | 1.2 | 0.3 | -12.5 | -10.5 | -2.7 | -1.1 | 1.6 | 0.6 | -12.2%
Cc1nnsc1NC(=O)OCC(C)(C)C | -5.0 | ? | -2.9 | / | / | / | / | -2.5 | -0.3 | -0.9%
O=C(NCCc1cccc(F)c1)C1CCC(=O)N(CCCc2ccccc2)C1 (stereo unspecified) | -3.7 | -0.4 | -2.7 | 3.9 | -12.7 | 2.3 | -2.2 | 3.3 | 0.0 | /
CCn1c(SCC(=O)Nc2ccc3c(c2)OCO3)nnc1C(C)C | -1.6 | -1.2 | 1.2 | 2.1 | 12.1 | 1.4 | -1.8 | 1.1 | 0.8 | /
CCC(=O)NCCc1nc2cc(NC(=O)c3ccco3)ccc2n1C | 0.0 | 8.4 | -7.6 | 2.4 | 9.4 | -0.4 | -5.4 | -0.3 | 0.1 | /
COCCNC(=O)C(C)N(c1ccc(OC)cc1)S(C)(=O)=O (stereo unspecified) | -19.4 | ? | -4.2 | / | / | / | / | -0.7 | 0.1 | -1.5%
COc1ccc(/C=N/NC(=O)COc2ccccc2-c2ccccc2)cc1 | -6.0 | 1.2 | -14.9 | -21.0 | -16.3 | 10.3 | / | 31.8 | -0.1 | -7.1%
Cc1ccc(C)c(-c2nc3cc(N)ccc3o2)c1 | 3.7 | ? | 5.7 | / | / | / | / | 3.3 | -13.2 | 6.2%
Cn1cnc(S(=O)(=O)Nc2ccc3c(c2)OCCO3)c1 | 27.5 | 25.5 | -19.7 | 7.1 | 8.1 | 1.9 | -4.3 | -7.1 | -0.1 | -0.4%

Assay outcomes deposited in PubChem BioAssay by several laboratories.
